SmPrx2 inh = blocks S. mansoni peroxiredoxin 2 enzymatic activity | S. mansoni Prx2 activity coupled to TGR/GSH (TGR is thioredoxin glutathione reductase), NADPH fluorescence loss, qHTS; some inactives read as strong as hits | Potency, µM | hit rate 0.07% among 65,000 | AID 448; active means full or partial inhibition curve with a strong effect at the top dose; inconclusive means weaker partial or single-point curve; inactive means no accepted curve; note: series up to 57 µM; many of its hits are not listed in these tables
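Purified S. mansoni TGR and Prx2 in pH 7.4 phosphate buffer with EDTA and Tween-20 were preincubated with compounds for 15 min. Further NADPH/GSH was added, then a 2.5 mM H2O2 aliquot initiated turnover, followed kinetically by NADPH fluorescence.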
LT uptake inh = anthrax lethal toxin internalization inhibition | hit rate 0.67% among 70,000 | Potency, µM (highest dose often 40 µM), for the others: top-dose activity change, negative = inhibition, usual class: inhibitors | Cells, anthrax lethal toxin internalization, FRET ratio (460/530) | AID 912; active = well fitted falling ratio curve with the 530 nm signal flat; inconclusive = other ratio curves, or a change in one channel alone; inactive = flat curves in the ratio and both channels; the % refers to the ratio; note: % is set by controls: 0 for no effect and ±100 for the full control effect; nearly all actives have a fitted effect of over 50% in size; tested in ME-180 cells; beta-lactamase reporter
* hit, by the source's call; ? = inconclusive; . = no result given; [ ] = remark or other dose. Potency is the fitted concentration of half-maximal effect. An excerpt, so the mix of outcomes need not match the whole.

SMILES	SmPrx2 inh	LT uptake inh
CC(C)(C)NC(=O)NC(=O)COc1ccccc1C#N	>57	-9%
N#CC1=C2SCN(Cc3ccco3)CN2C(=O)CC1c1ccc(Cl)cc1 (configuration not stated)	>57	?
CCCn1c(-c2ccc(F)cc2)nc2c(NCCCN(C)C)nc(C)nc21	.	-29%
Cc1ccc(S(=O)(=O)N2CCN(S(C)(=O)=O)C2)cc1	>57	-6%
CCn1c(SCC(=O)Nc2nnc(C)s2)nnc1-c1ccncc1	>57	-12%
CC(C)(C)[Si](C)(C)c1c2c(nc3ccc(OCc4ccccc4)cc13)-c1cccc(=O)n1C2	.	?
O=C(O)/C=C\c1c2ccc(=O)c(O)c-2oc2c(O)c(O)ccc12	>57	?
CC(C)C(=O)Nc1ccc(C(=O)NCc2cccnc2)cc1	>57	3%
Cc1ccc(-c2cc(-c3ccccc3Cl)[nH]n2)c(O)c1	.	?
CC1C2CC(C(CN(C)C)/C2=N/O)C1(C)C (configuration not stated)	.	-15%
CCOC(=O)C1=C(C)Nc2nc(C)nn2C1c1cc(OC)ccc1OC (configuration not stated)	>57	-15%
Cn1c(CNc2nc(-c3ccccc3)cs2)nnc1SCC(=O)OC1CCCCC1	>57	?
CN(C)/C=c1\sc2c(C#N)cc(C(=O)c3ccc(Br)cc3)n2c1=O	>57	?
O=C(O)CC/C=C\CC[C@H]1[C@@H](N2CCCCC2)[C@@H](O)C[C@@H]1OCc1ccc(-c2ccccc2)cc1	>26	?
Cc1cc(NC(=O)CSc2nnc(-c3ccc(Cl)s3)o2)no1	>57	?
Cc1nc2c3c(-c4ccccc4)nc(N4CCOCC4)nc3nn2c(C)c1CCC(=O)O	>57	-6%
Cc1ccc(C(=O)Nc2ccc3c(c2)OCO3)cc1S(=O)(=O)N1CCCC1	>57	-7%
O=C(CSc1nc2ccccc2s1)N1CCN(C(=O)c2ccco2)CC1	>57	?
Cn1c(=O)[nH]c(=O)c2c1nc1n2CCCS1	>57	?
C[C@@H](N)/C(N)=N/O	>57	-1%[8 µM]
C#CCCCO/N=C1/C[C@@H](O)[C@@H](O)[C@@H]2[C@H]3C(=O)N(c4ccc(F)cc4F)C(=O)[C@@H]3CC[C@H]12	.	-10%[0.32 µM]
CCN(CC)C(=O)COc1ccc(CC(=O)O)cc1OC	>57	6%
CCOC(=O)c1cc2occc2n1CC(=O)N1CCOCC1	>57	-14%
CCOc1cccc(C2C(C(=O)c3ccc(C)o3)=C(O)C(=O)N2Cc2ccncc2)c1 (configuration not stated)	>57	0%
COc1ccccc1Oc1coc2cc(OC(=O)N3CCOCC3)ccc2c1=O	>57	?
COCOc1ccc(Br)cc1C(=O)/C=C\c1ccc2c(c1)OCO2	.	?
COc1ccc(OC)c(S(=O)(=O)N(C)CC(=O)N2CCN(c3cccc(Cl)c3)CC2)c1	>57	-8%
O=C(Nc1ccc(N2CCN(C(=O)c3ccc(Cl)cc3)CC2)cc1)c1cccnc1	>57	-28%
COC(=O)CCSCC(=O)Nc1nnc(C)s1	>57	9%
CCOCCCNC(=O)C1CCCN1S(=O)(=O)c1ccc(Cl)cc1 (configuration not stated)	>57	-1%
CCCn1c(=NC(=O)c2ccc3c(c2)OCO3)c(C#N)cc2c(=O)n3cccc(C)c3nc21	>57	2%
CSc1ccc(S(=O)(=O)NCc2ccc(Cl)cc2)cc1	>57	?
Nc1ccc(CN2CCN(c3ccc4ccccc4n3)CC2)cc1	>57	14%
O=C(Cc1ccc(Cl)c(Cl)c1)OCC(=O)c1ccc[nH]1	>57	-16%
CCCCn1c(SCc2ccc(Cl)cc2)nc2c1c(=O)[nH]c(=O)n2C	>57	2%
COc1ccccc1CNc1ncnc2ccc(-c3ccc(C(=O)N(C)C)cc3)cc12	>57	?

Structural class, those above with an aryl thioether with sulfur outside any ring
SMILES	SmPrx2 inh	LT uptake inh
CCn1c(SCC(=O)Nc2nnc(C)s2)nnc1-c1ccncc1	>57	-12%
Cn1c(CNc2nc(-c3ccccc3)cs2)nnc1SCC(=O)OC1CCCCC1	>57	?
Cc1cc(NC(=O)CSc2nnc(-c3ccc(Cl)s3)o2)no1	>57	?
O=C(CSc1nc2ccccc2s1)N1CCN(C(=O)c2ccco2)CC1	>57	?
CSc1ccc(S(=O)(=O)NCc2ccc(Cl)cc2)cc1	>57	?
CCCCn1c(SCc2ccc(Cl)cc2)nc2c1c(=O)[nH]c(=O)n2C	>57	2%

Following part:
SMILES	SmPrx2 inh	LT uptake inh
Cc1cc(N(C)C)nc(SC(C)C)n1	>57	?
CCOc1cc(C)c(C(C)C)cc1S(=O)(=O)N1CC(C)OC(C)C1 (configuration not stated)	>57	-8%
COc1ccc(C)cc1-n1nnnc1SCc1cc(=O)n2cc(C)ccc2n1	?	?
O=c1ccc2ccc(O)c(O)c2o1	>57	?
COc1cccc(Oc2cnc(N)nc2-c2ccc(OC)cc2O)c1	>57	-11%
Cc1cc(OC(=O)c2ccccc2)n(CCC#N)n1	>57	?
CC(C)COC(=O)C(C#N)c1nc2ccccc2nc1N1CCN(Cc2ccc3c(c2)OCO3)CC1 (configuration not stated)	>57	4%
CN(Cc1ccco1)c1ncnc2ccc(-c3ccccc3Cl)cc12	>57	?
O=C(OCC1CO1)C1CCCCC1C(=O)OCC1CO1 (configuration not stated)	.	?
O=C(c1ccc(Cl)cc1)c1ccc(OCC(=O)N2CCOCC2)cc1	>57	-21%
CC(=O)OC(C(=O)NC1CCCCC1)c1ccncc1 (configuration not stated)	>57	5%
O=C1CC(N2CCOCC2)C(=O)N1c1cc(Cl)cc(Cl)c1 (configuration not stated)	.	1%
CN(C(=O)c1ccncc1)c1nnc(-c2ccncc2)s1	>57	3%
COc1ccc(CNC(=O)c2cc(C3CC3)on2)cc1	>57	-1%
COc1cc(S(=O)(=O)N2CCN(Cc3ccccc3)CC2)ccc1Br	>57	?
Cc1cccc(N(CC(=O)NC2CCCCC2)C(=O)CCC(=O)Nc2cc(C)ccn2)c1	>57	4%
COc1ccc(S(=O)(=O)NCCSC(C)(C)C)cc1Cl	>57	5%
C[C@H](N[C@@H](C)CCc1ccccc1)[C@H](O)c1ccc(O)cc1	>57	-4%
O=C(O)c1ccc(S(=O)(=O)c2ccccc2)cc1	>57	1%
COc1ccc(CCC(=O)N2CCN(C3CCCCC3)CC2)cc1	>57	10%
COc1cc(C[C@H]2C(=O)OC[C@@H]2Cc2ccc(OC)c(OC)c2)ccc1O	>57	?
COc1ccc(OC)c(NC(=O)Nc2ccccc2C)c1	.	4%
Cn1c(Cc2ccccc2)nnc1SCC(=O)c1ccc(Br)s1	>57	-3%
CCOC(=O)C1CCN(C(=O)c2sc3nc(-c4ccc(F)cc4)cn3c2C)CC1	>57	-9%
CCCCc1c(O)nc(SCC(=O)N2CCOCC2)[nH]c1=O	>57	3%
COc1ccc(C(=O)Nc2cccc(C(=O)N3CCN(C)CC3)c2)cc1	>57	16%
Cc1[nH]c2ccccc2c1C(=O)CN1CCCCC1C (configuration not stated)	>57	?
O=C(NCc1ccccn1)c1nnc(Cc2ccc(Cl)cc2)o1	>57	-6%
O=C(Nc1ccccc1Cl)NC1(C(=O)NCCCN2CCOCC2)CCCCC1	>57	9%
O=C(c1csnn1)N1CCC[C@@]2(CCN(c3ccccn3)C2)C1	>57	3%
Cc1ccc(SCC(=O)N2CCOCC2)cc1	>57	17%
Nc1nc(N2CCCCC2)nc2ccccc12	>57	20µM*
CNS(=O)(=O)c1cccc2cccnc12	.	-6%
O=C(OCCN1C(=O)CCC1=O)c1ccc(S(=O)(=O)N2CCCCC2)cc1	>57	8%
Cc1cc(C(=O)Nc2sc(C)c(C)c2C#N)c(C)o1	>57	-8%
Cc1cc(N2CCN(C)CC2)nc2ccc(NC(=O)CCC(=O)NCc3ccco3)cc12	>57	-6%

Look-ups from the results shown.
SmPrx2 inh result of O=C(Nc1ccccc1Cl)NC1(C(=O)NCCCN2CCOCC2)CCCCC1 is entered as >57
LT uptake inh result of Cc1cc(N2CCN(C)CC2)nc2ccc(NC(=O)CCC(=O)NCc3ccco3)cc12 is entered as -6%
SmPrx2 inh result of Cc1[nH]c2ccccc2c1C(=O)CN1CCCCC1C (configuration not stated) is entered as >57
SmPrx2 inh result of Nc1nc(N2CCCCC2)nc2ccccc12 is entered as >57

(next part)
SMILES	SmPrx2 inh	LT uptake inh
Cc1ccc(-c2noc(CCCC(=O)Nc3cccnc3)n2)cc1	>57	-9%
COc1ccc(N2CCN(C(=O)CNC(=O)Cn3c(C)cc4ccccc4c3=O)CC2)cc1	>57	5%
Cc1cccc(-c2nc(CS(=O)CC(=O)NCCCSC3CCCCC3)c(C)o2)c1 (configuration not stated)	>57	-11%
CCC1CCCCN1C(=O)N[C@@H](CCSC)C(=O)OC (some centres not stated)	>57	-2%
Cc1cccc(N(CC(=O)NCc2ccccc2)C(=O)Cn2nnc(-c3ccc(C)o3)n2)c1	>57	2%
COc1ccc(C2(O)CCN(C(=O)NC3CCCCC3)CC2)cc1	>57	1%
CCCCNC(=O)C(c1ccc(OCC(=O)OC)c(C(=O)OC)c1)N(Cc1ccccc1)C(=O)CCCCCN1C(=O)NC(c2ccc(-c3ccccc3)cc2)C(C(=O)OCc2ccccc2)=C1C (configuration not stated)	.	?
CCN1C(=O)CSc2ccc(C(=O)NCCCN3CCOCC3)cc21	>57	4%
C=CCn1c(Br)nc2c1c(=O)n(C)c(=O)n2C	>57	-4%
CCOc1ccccc1N1CCN(S(=O)(=O)c2cccs2)CC1	>57	-25%
COc1ccccc1NC(=O)c1ccc(NC(=O)CSc2nnnn2C)cc1	?	19%
CC(C)c1c(C#N)c(N)nc(SCC(=O)c2cc3ccccc3oc2=O)c1C#N	>57	4%

Four records drawn at random from the list so far:
SMILES	SmPrx2 inh	LT uptake inh
C=CCn1c(Br)nc2c1c(=O)n(C)c(=O)n2C	>57	-4%
Cc1cccc(N(CC(=O)NCc2ccccc2)C(=O)Cn2nnc(-c3ccc(C)o3)n2)c1	>57	2%
COc1ccc(C2(O)CCN(C(=O)NC3CCCCC3)CC2)cc1	>57	1%
Cc1cccc(-c2nc(CS(=O)CC(=O)NCCCSC3CCCCC3)c(C)o2)c1 (configuration not stated)	>57	-11%

Further structures.
SMILES	SmPrx2 inh	LT uptake inh
CCOC(=O)CN(C(=O)CN1CCOCC1)c1ccc(Br)cc1	>57	-5%
COc1ccc(CCNC(=O)C2CC(=O)N(c3ccccc3)C2)cc1OC (configuration not stated)	>57	-5%
CC1Cc2ccccc2N1C(=O)COC(=O)c1ccc(S(=O)(=O)N(C)C)cc1 (configuration not stated)	>57	-10%
Nn1c(SCC(=O)NC2CCCc3ccccc32)nnc1-c1cccs1 (configuration not stated)	>57	-3%
O=C1CC(N2CCN(C/C=C/c3ccccc3)CC2)C(=O)N1Cc1ccc(N2CCCC2=O)cc1 (configuration not stated)	>57	8%
CCCOc1ccc(Cn2cnc3ccccc32)cc1	>57	?
COCc1nc(-c2cc(OC)c(OC)c(OC)c2)no1	>57	-11%
COc1cc(N2CN=c3s/c(=C\c4ccccn4)c(=O)n3C2)cc(OC)c1OC	>57	-16%
CCOC(=O)c1c(C)oc(NC(=O)COc2ccc(Cl)cc2C)c1C#N	>57	?
COCC(=O)Nc1nnc(SCC(=O)NCc2cccs2)s1	>57	-2%
C=CCc1ccccc1OCC(O)CN1CCN(Cc2ccc3c(c2)OCO3)CC1 (configuration not stated)	>57	-11%
Cc1ccccc1OCc1nc(-c2ccccc2)no1	>57	-23%
O=C(c1ccc2nc(-c3ccco3)c(-c3ccco3)nc2c1)N1CCN(c2ccccc2)CC1	>57	?
Cc1cc(C)n2c(SCC(=O)N3CCN(S(=O)(=O)c4ccc(Cl)cc4)CC3)nnc2n1	>57	-21%
CC1=C2C(=O)OC(c3ccoc3)C2(C)CCC1 (configuration not stated)	>57	-2%
O=C(NCCCn1ccnc1)c1cn(-c2ccccc2)nc1-c1ccc(F)cc1	>57	3%
O=C(CCN1C(=O)c2ccccc2C1=O)N1CCN(Cc2ccc(Cl)cc2Cl)CC1	>57	-24%
O=C(CN1C(=O)COc2ccccc21)NCCN1CCc2ccccc2C1	>57	?
O=C(Cn1nc(Cc2cccnc2)c2ccccc2c1=O)Nc1ccc2c(c1)OCO2	>57	-17%
O=C(NCCc1ccc(Cl)cc1)C1CCN(C(=O)c2sccc2-n2cccc2)CC1	>57	-28%
Cn1c(=O)oc2cc(S(=O)(=O)N3CCCC(C(=O)NCC4COc5ccccc5O4)C3)ccc21 (configuration not stated)	>57	?
CC(=O)Nc1nc(-c2cccs2)cs1	>57	4%
CCCCOc1ccc(-c2nnc(-c3ccco3)o2)cc1	>57	?
CCN(CC)S(=O)(=O)c1cccc(-c2nc3n(n2)Cc2ccccc2-3)c1	>57	7%
COc1ccc(NC(=O)CSc2nc(-c3ccncc3)nn2CC(=O)N2CCCC2)cc1	>57	10%
Cc1ccccc1NC(=O)Cc1nc(CSc2nnc(C3CCCCC3)n2N)cs1	>57	?
CCCN(CCC)CCCNS(=O)(=O)c1cc(Br)cc2c1N(C(C)=O)CC2	>57	7%
CC[C@H](C)[C@H](NS(=O)(=O)c1ccc(C)cc1)C(=O)N1CCC(C(=O)N[C@@H](C)C(=O)O)CC1	>57	-8%
Cc1ccc(-n2c(=O)[nH]cc(C(=O)Nc3ccc4c(c3)OCO4)c2=O)cc1C	>57	?
CCC(=O)N/C=C/n1cnc2cc(C(F)(F)F)ccc21	>57	9%
COc1cc(C2N3CC4(C)CN2CC(C)(C3)C4)ccc1O (configuration not stated)	>57	-22%
O=c1cnc2cnc(N3CCOCC3)nc2n1Cc1cccs1	>57	2%

Screens from PubChem.
